# Compound activity from PubChem.
# Six1-Eya2 blk: blocks human Six1 binding to Eya2 | Q15475+O00167 | AlphaScreen GST-Six1/His-Eya2 binding, biochemical; stronger effect = lower value; control for the full effect not named in the record | activity change, % (concentration not given with the values) | 0.56% of 360,000 active | AID 651725; in the data active = activity change below about -65%; inconclusive = about -30% to -65%; inactive = above about -30%; further: on the % scale 0 is the no-effect control and ±100 the full control effect
#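 GST-Six1 + His-Eya2 (5X stock: 250/500 nM); Tris pH 8.0, 300 mM NaCl, 0.05% BSA, 0.02% Tween 20; GSH donor/Ni acceptor beads; 1 h 37 °C dark; AlphaScreen readout.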
# TRPML1 agonist: agonists of human TRPML1 channel; Q9GZU1; TRPML1-expressing cells, Ca2+ dye fluorescence, FDSS; host cell line not named in the record; reference of the full effect not given here; activation, % (concentration not given with the values); 0.12% of 410,000 active; in the data active = activation above about 50%; inconclusive = about 30% to 50%; inactive = below about 30%; further: 0% is about no effect; the text of the record puts the active cut at 80%
# Target sequence (Q9GZU1 whole entry, looked up): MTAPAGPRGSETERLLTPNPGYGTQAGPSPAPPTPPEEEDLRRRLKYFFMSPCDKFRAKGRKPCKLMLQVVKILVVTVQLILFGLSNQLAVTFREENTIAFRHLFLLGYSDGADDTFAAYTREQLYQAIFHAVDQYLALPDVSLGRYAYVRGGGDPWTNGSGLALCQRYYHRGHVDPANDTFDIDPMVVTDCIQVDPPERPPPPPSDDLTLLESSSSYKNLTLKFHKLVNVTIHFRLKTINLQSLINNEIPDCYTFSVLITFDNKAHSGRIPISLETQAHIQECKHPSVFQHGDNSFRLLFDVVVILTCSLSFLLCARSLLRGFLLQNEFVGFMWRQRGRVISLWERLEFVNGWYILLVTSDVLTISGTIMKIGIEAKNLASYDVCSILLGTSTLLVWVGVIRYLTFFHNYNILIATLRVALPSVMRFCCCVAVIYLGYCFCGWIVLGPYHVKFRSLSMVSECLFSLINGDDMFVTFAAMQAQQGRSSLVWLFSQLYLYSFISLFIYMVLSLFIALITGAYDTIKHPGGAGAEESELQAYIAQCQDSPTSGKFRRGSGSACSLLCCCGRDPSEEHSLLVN
#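 In this qHTS format, compounds were pin-transferred onto Ca8-dye-loaded TRPML1-DL cells induced with Tet overnight, and intracellular Ca2+ fluorescence was recorded kinetically for 110 s after a 10 s baseline. A subsequent 4uM final 54-4 (EC80) addition followed by a second 110 s read served as the antagonist phase.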
# D2 PAM: positive allosteric modulators of human D2 dopamine receptor; P14416; DiscoveRx D2 beta-arrestin cells, luminescence, 90 min; 100% = 57 uM dopamine signal; potentiation, % (no concentration beside the values); 0.23% of 360,000 active; active = potentiation of 50% or more; inconclusive = 30% to 50%; inactive = 30% or less;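 further: compound concentration not given in the record; tested on top of an EC20 dose of dopamine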
# Target sequence (P14416 whole entry, looked up): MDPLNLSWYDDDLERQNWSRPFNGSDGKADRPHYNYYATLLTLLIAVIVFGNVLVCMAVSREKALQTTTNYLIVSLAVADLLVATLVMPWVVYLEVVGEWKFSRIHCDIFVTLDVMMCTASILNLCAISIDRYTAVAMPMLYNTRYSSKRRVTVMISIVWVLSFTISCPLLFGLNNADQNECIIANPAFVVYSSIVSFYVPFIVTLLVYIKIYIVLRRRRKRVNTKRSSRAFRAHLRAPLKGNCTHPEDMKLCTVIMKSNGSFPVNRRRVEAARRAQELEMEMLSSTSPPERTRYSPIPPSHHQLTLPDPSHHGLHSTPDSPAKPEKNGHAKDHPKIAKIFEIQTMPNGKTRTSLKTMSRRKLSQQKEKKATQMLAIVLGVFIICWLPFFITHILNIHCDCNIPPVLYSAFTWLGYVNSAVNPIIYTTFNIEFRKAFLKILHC
#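 PathHunter D2 cells, attached overnight at 37 deg C, received compound in DMSO plus dopamine at EC20 (50 nM final) for 90 min at 37 deg C. Beta-arrestin recruitment was read as luminescence after 1 h with detection reagent at ambient temperature.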
# TRPML1 inh: human mucolipin-1 channel inhibition; Q9GZU1; 0.02% of 390,000 active; TRPML1-inducible cells, Ca2+ dye fluorescence, FDSS; stronger effect = lower value; inhibition of EC80 agonist-evoked calcium signal; activity change, negative = inhibition, % (concentration not given with the values); in the data active means activity change below about -50%; inconclusive means about -30% to -50%; inactive means above about -30%;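 further: stimulus is agonist 54-4 at its EC80 concentration; on the % scale 0 is the no-effect control and ±100 the full control effect; compound concentration not given in the record; the text of the record puts the active cut at -80%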
#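 TRPML1-DL cells, Tet-induced overnight (~16 h, 37 °C) at 1,500 cells/well, were loaded with Ca8 no-wash dye plus quencher for 45-90 min at room temperature. Compounds were pinned during FDSS kinetic reading; agonist 54-4 at EC80 (4 uM final) then added.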
# TRPV1 PAM: enhances activation of the human vanilloid receptor TRPV1; 0.02% of 320,000 active; AID 540277; potentiation, % at 8.33 µM; TRPV1-expressing cells, Fluo-8 calcium influx, capsaicin EC20 potentiation; host cell line not named in the record; control for the full effect not named in the record; active means potentiation above 80%; inconclusive means 30% to 80%; inactive means below 30%; further: 0% is about no effect
#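 TRPV1-expressing cells were cultured overnight at 35.5C and loaded with Fluo-8 calcium dye for 40 to 90 min at room temperature. After a 10 s baseline, compound was added and calcium influx was read kinetically for 3 min (ex 480/em 520 nm).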
# CtBP-E1A blk: inhibitors of CtBP/E1A interaction. AlphaScreen GST-E1A/His-CtBP binding, 1536-well; stronger effect = lower value; control for the full effect not named in the record. activity change, % (test concentration not listed). 0.49% of 340,000 active. AID 651724; in the data active means activity change below about -65%; inconclusive means about -30% to -65%; inactive means above about -30%; further: on the % scale 0 is the no-effect control and ±100 the full control effect; compound concentration not given in the record
#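 AlphaScreen with 125 nM GST-E1A and 125 nM His-CtBP (5X stocks) in Tris pH 8.0, 300 mM NaCl, BSA, Tween 20, TCEP. Compounds preincubated 2 h at 37 deg C, then glutathione donor/nickel acceptor beads added for 1 h at 37 deg C in dark.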
# Active calls of the source: *; ? = inconclusive; · = not tested or not shown; & = joins results of further samples.
SMILES,Six1-Eya2 blk,TRPML1 agonist,D2 PAM,TRPML1 inh,TRPV1 PAM,CtBP-E1A blk
COc1cc(C(=O)Nc2ccncc2)c([N+](=O)[O-])cc1OC,3,-0.8,-12,6,·,7
O=C(O)c1ccccc1C(=O)NCc1ccc(F)cc1,7,0.2,-4,-1,-16,8
COc1ncnc(-c2ccccc2)c1-c1ccccc1,7,-0.2,-21,-2,·,·
CCOC(=O)N1CCC(n2c(SCC(=O)Nc3ccccc3OC)nc3ccccc3c2=O)CC1,-12,2.5,-5,8,5,-9
O=c1[nH]nc(-c2ccc[nH]2)[nH]1,12,0.0,-8,24,·,0
C=CCn1c2ccccc2c2nnc(SC(CC)C(=O)Nc3nc(C)c(C(=O)OCC)s3)nc21 (stereo not drawn),-13,4.7,-3,-15,3,-24
COc1ccc(CN(C)CC(=O)NC(C)c2ccccc2)c(OC)c1 (stereo not drawn),5,-1.3,-4,-9,4,1
COc1ccc(C(=O)N/C(=C\c2ccc3c(c2)OCO3)C(=O)NCCc2nc3ccccc3[nH]2)cc1,-4,-0.1,-10,-8,-10,-10
Cc1cc(C)cc(C(=O)N2CC(=O)Nc3ccccc32)c1,0,2.1,-10,5,27,0
O=C(Oc1ccccc1C(=O)Oc1ccccc1)c1cccnc1,13,3.4,-28,-5,-23,·
COc1cc(OC)cc(C(=O)NCC2CCCN(Cc3cccc(C(C)=O)c3)C2)c1 (stereo not drawn),3,-0.6,-3,-13,4,3
COc1ccc(OCc2cc(C(=O)N(C)Cc3nccn3C)no2)c2ccccc12,-23,0.5,16,-8,5,-16
CCn1cc(C(=O)O)c(=O)c2cnc(N3CCN(C(=S)NC(=O)c4ccccc4Cl)CC3)nc21,5,-0.5,-15,3,·,·
Cc1cc(=O)[nH]c2c(C)cc(S(=O)(=O)NCc3ccccc3)cc12,-7,1.4,9,-15,3,14
CCC1CCCCN1S(=O)(=O)c1ccccc1[N+](=O)[O-] (stereo not drawn),1,3.3,-3,0,9,0
CCn1c(-c2cccc(Br)c2)n[nH]c1=S,5,1.3,-20,28,?,-14
Clc1ccc2c(c1)-c1[nH]ncc1CS2,-5,-0.8,-1,-23,9,-6
O=C(OCC(=O)N1CCCCCC1)c1n[nH]c(=O)c2ccccc12,3,-0.1,-13,-2,4,0
CC(CCc1ccccc1)NC(=O)N1CCOCC1 (stereo not drawn),0,0.1,5,28,-31,6
CN(Cc1cccs1)C(=O)COc1ccc(-c2nnco2)cc1,1,0.1,1,13,4,-4
Cc1ccccc1CN1CCN(Cc2ccc3cccc(F)c3n2)CC1CCO (stereo not drawn),2,-0.2,-20,4,6,2
CN(Cc1cccs1)C(=O)CCCc1c[nH]c2ccccc12,-11,17,-4,22,10,5
COCC1CCCN(C(=O)c2cc(COc3ccc4ncccc4c3)on2)C1 (stereo not drawn),6,1.5,6,-1,-13,-2
CCCCCCCCS(=O)c1sc2nc(C)cc(C)c2c1N (stereo not drawn),-1,-0.3,-6,32,-8,-4

# Profiles, quoted from the list. Screens in order: Six1-Eya2 blk, TRPML1 agonist, D2 PAM, TRPML1 inh, TRPV1 PAM, CtBP-E1A blk
# Cc1ccccc1CN1CCN(Cc2ccc3cccc(F)c3n2)CC1CCO (stereo not drawn) as listed: 2, -0.2, -20, 4, 6, 2
# CN(Cc1cccs1)C(=O)CCCc1c[nH]c2ccccc12 as listed: -11, 17, -4, 22, 10, 5
# CCn1cc(C(=O)O)c(=O)c2cnc(N3CCN(C(=S)NC(=O)c4ccccc4Cl)CC3)nc21 as listed: 5, -0.5, -15, 3, ·, ·
# CCCCCCCCS(=O)c1sc2nc(C)cc(C)c2c1N (stereo not drawn) as listed: -1, -0.3, -6, 32, -8, -4
# CC(CCc1ccccc1)NC(=O)N1CCOCC1 (stereo not drawn) as listed: 0, 0.1, 5, 28, -31, 6

# Next section:
SMILES,Six1-Eya2 blk,TRPML1 agonist,D2 PAM,TRPML1 inh,TRPV1 PAM,CtBP-E1A blk
Cn1c(SCC(=O)NC2CCCC2)nc2c(c1=O)SCC2,-5,-0.6,-1,7,13,-14
COc1ccc(-c2nc3c4ccccc4ccn3c2Cc2ccccc2C(F)(F)F)cc1OC,0,0.3,-6,·,·,-5
COc1ccc(/C=N/NC(=O)c2ccc(COc3cccc4cccnc34)cc2)cc1OC,0,0.3,1,10,2,-1
CC(Cc1cccs1)NC(=O)c1cccs1 (stereo not drawn),1,-0.3,1,-3,0,0
CC1=C(C(=O)Nc2ccc(Cl)cc2C(=O)N2CCC(C(N)=O)CC2)SCCO1,-1,-0.5,-10,0,-9,4
CN(C)C(=O)CSc1nc2ccccc2c(=O)[nH]1,-21,1.2,-5,6,-12,1
COc1cc(-c2n[nH]c(=S)n2-c2ccc(C)cc2)cc(OC)c1OC,0,2.7,-3,6,0,2
O=C(Nc1ccc(N2CCOCC2)nc1)c1ccc(Cl)cc1,1,-0.1,-8,-11,-17,0
Cc1ccc2c(C)nc(N/C(N)=N/S(=O)(=O)c3ccc([N+](=O)[O-])cc3)nc2c1,-13,1.9,-1,-1,-7,·
COc1cc(C(=O)N2CCCCCCC2)ccc1OC1CCN(C(C)=O)CC1,4,0.0,21,35,2,3
CCC(=O)Nc1c(OC(=O)CC)ccc2c(C)cc(=O)oc12,2,0.0,-7,8,10,0
CNC(=O)CSc1ncnc2c1cnn2-c1ccccc1,3,-1.1,1,4,-27,-8
O=C1CS(=O)(=O)N(Cc2ccc(F)cc2)c2ccccc21,1,-1.1,4,-15,·,0
O=C(C[C@H]1C[C@H](C(=O)N2CCCCC2)[C@@]2(CCc3ccccc3)c3[nH]c4ccc(Cl)cc4c3CCN2C1=O)NCCC1=CCCCC1,-1,-0.4,·,-12,·,4
CCCCCN(C(=O)CCC(=O)OCC(=O)N1CCCCC1C)c1c(N)n(CCCC)c(=O)[nH]c1=O (stereo not drawn),5,0.2,17,10,3,10
Oc1ccc(NCc2ccccc2OCc2ccccc2)cc1,-12,1.6&2.3,97*,25&-3,-5,?
CCOc1ccc2nc(N3C(=O)CNC3=S)sc2c1,-23,-1.2,-5,11,10,-5
CC(C)Sc1nc(N2CCCC2)c2c(c1C#N)CC(C)(C)OC2,-3,0.0,-8,3,-13,-1
COc1cccc(OC)c1C(=O)N1CCNCC1,-10,-0.5,-17,6,8,11
O=C(N/N=C\c1cc2c(cc1[N+](=O)[O-])OCO2)c1cccs1,-9,-0.9,10,-1,0,-15
Cc1ccc(C)c(NC(=O)COC(=O)CC2CC3CCC2C3)c1 (stereo not drawn),12,0.7,-6,49,·,14
Cc1cc(C(=O)COC(=O)C23CC4CC(CC(O)(C4)C2)C3)c(C)n1-c1c(C)n(C)n(-c2ccccc2)c1=O,-3,0.0,-3,-3,6,-1
CCOc1cccc(=O)c2c(C)n(C)c(C)c12,-26,-0.2,13,38,6,-8
CCCNC(=O)CN(c1ccc(F)cc1)S(=O)(=O)c1ccc2c(c1)OCCO2,7,0.1,7,-4,5,2
Cc1cccc(-c2nnc(SCC(=O)NCc3ccc4c(c3)OCO4)n2C)c1,-6,-0.6,-6,0,2,1
CSc1ccc(C(=O)N2CCC(CCC(=O)NC3CC3)CC2)cc1,0,1.2,-7,20,-20,13
Oc1ccc(Cl)cc1C1C=C(c2ccc3c(c2)OCO3)NC(c2c(F)cccc2Cl)N1 (stereo not drawn),·,0.8,·,-5,26,·
C#CCNC(=O)C1=C[C@@H](c2ccccc2)C[C@@H](OCCCCO)O1,2,-0.2,-2,-7,·,0
COc1ccccc1N1CCN(C2CCCN(C(=O)CC(F)(F)F)C2)CC1 (stereo not drawn),4,0.0,-4,-1,-1,-2
COc1cc(N2C(=O)c3ccccc3C2=O)c(Cl)cc1C(=O)OCC(=O)NCc1ccco1,-5,1.3,6,6,-1,-8
O=C(CN1CCN(C(=O)c2cccc(S(=O)(=O)N3CCCC3)c2)CC1)Nc1ccc(F)cc1,6,-0.3,-9,1,0,-2
Cc1nc2ccccc2c(=O)n1NC(=O)c1ccc(F)cc1Cl,-4,-0.3,-19,3,-15,9
NS(=O)(=O)c1ccc(NC(=O)COC(=O)CCc2ccccc2)cc1,-4,0.2,-1,-2,-13,5
COc1cc(/C=C/C(=O)O)cc(S(=O)(=O)Nc2cc(S(=O)(=O)N3CCCCC3)ccc2Cl)c1OC,-9,-0.6,-5,20,·,3
O=C(Cc1cccc(NC(=O)C2CCCN(C(=O)C3CCC3)C2)c1)Nc1ccc(C(=O)N2CCOCC2)cc1 (stereo not drawn),7,-0.5,-2,21,·,3
Cc1ccc2c(c1)c1nnc(SCC(=O)N3CCN(c4ccc(F)cc4)CC3)nc1n2CC(=O)O,0,-0.2,-7,-2,6,0
COC(=O)c1ccc(CSc2nnc3nc(C)cc(C)n23)cc1,-7,0.1,-5,20,-2,0
O=C(NCCc1ccncc1)C(F)(F)F,7,-0.4,-9,-5,-12,4
CC(=O)Nc1ccc(S(=O)(=O)N(C)CC(=O)Nc2cccc(S(=O)(=O)N3CCCC3)c2)cc1,3,0.5,-68,8,4,1
CCc1ccc(OCC(=O)N2CCc3ccccc32)cc1,3,1.7,-8,-16,9,16
O=C(Cc1c[nH]c2ccccc12)NCc1ccccc1F,-4,1.4,-2,-17,0,·
O=C(NC1CCCCC1)N1CCCC(c2nc3ccccc3[nH]2)C1 (stereo not drawn),1,-0.5,-1,19,6,13
CN(C)CC(c1ccccc1)c1ccccc1,4,-0.4,-9,29,6,4
CCN(CC(=O)N1CCc2ccccc2C1)S(=O)(=O)c1ccc2ccccc2c1,-1,3.2,10,10,-9,15
CSc1cccc(NC(=O)NCc2cccc(CNC(=O)Nc3cccc(SC)c3)c2)c1,-2,-0.7,-2,39,14,4
CCOC1=C2CN(S(=O)(=O)c3ccc(C)cc3)[C@H](c3ccccc3)C[C@@H]2N(S(=O)(=O)c2ccccc2)[C@H](c2ccccc2)C1,2,-0.1,1,-15,·,2
Cc1ccc(S(=O)(=O)Oc2ccc(/C=C(/NC(=O)c3ccccc3)C(=O)NCC(=O)O)cc2)cc1,-15,3.3,-1,8,24,?
CCOc1ccc(S(=O)(=O)Nc2ccc(C(=O)NCC3(N4CCCCC4)CCCCC3)cc2)cc1,-4,1.5,-2,18,8,1
Cc1cc(Cl)ccc1C(=O)C1CCCN(C(=O)CCn2cnnn2)C1 (stereo not drawn),2,1.8,-10,-4,-8,5
COc1ccc(C2(C(=O)NC3CCCCC3)CCOCC2)cc1OC,-10,-0.3,-17,28,7,0
O=C(c1cccc(S(=O)(=O)N2CCCC2)c1)N(Cc1ccco1)C1CCS(=O)(=O)C1 (stereo not drawn),14,-0.8,-5,5,-4,2
CC(C)NC(=S)NC(c1ccccc1)(c1ccccc1)c1ccccc1,?,70*,-9,-2,-4,-28
COc1cc(/C=N/NC(=O)CN2CCOCC2)ccc1OCc1ccccc1,8,0.8,-5,-10,-2,6
